# VDR inhibitor: inhibitors of human vitamin D receptor. actives 0.93% (n = 400,000). P11473. VDR-SRC2-3 peptide fluorescence polarization, 2 h. Potency, µM, without a hit: max response, negative = inhibition, usual class: inhibitors; active = well fitted inhibition curve with a large enough effect; inconclusive = small, poorly fitted or top-dose-only effect, or another doubt; inactive = no such curve, though single readings can be large or run the other way; note: series mostly up to about 120 µM
# Target sequence (P11473 whole entry, looked up): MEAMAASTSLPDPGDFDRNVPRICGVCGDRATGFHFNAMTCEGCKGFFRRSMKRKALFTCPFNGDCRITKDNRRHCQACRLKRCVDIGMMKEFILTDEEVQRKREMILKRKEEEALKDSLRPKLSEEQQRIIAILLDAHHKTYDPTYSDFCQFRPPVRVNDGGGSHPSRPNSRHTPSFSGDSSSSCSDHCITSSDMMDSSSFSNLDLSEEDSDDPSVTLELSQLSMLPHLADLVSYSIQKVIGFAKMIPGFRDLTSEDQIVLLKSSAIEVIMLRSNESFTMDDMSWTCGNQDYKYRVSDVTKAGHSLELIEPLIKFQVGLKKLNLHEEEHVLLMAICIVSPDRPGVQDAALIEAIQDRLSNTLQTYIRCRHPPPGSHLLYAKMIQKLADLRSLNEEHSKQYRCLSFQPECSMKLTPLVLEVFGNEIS
#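 After 23 nl compound addition and a short centrifugation, plates sat for 2 hours at ambient temperature; polarization of fluorescence then indicated loss of VDR binding to peptide SRC2-3.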
# * = called active by the depositor; ? = inconclusive; & = joins results of further samples; [ ] = another dose, or the depositor's remark. % is set by controls: 0 for no effect and ±100 for the full control effect; potency is the fitted concentration of half-maximal effect.
VDR inhibitor | Compound
-4.0% | C[C@H](NC(=O)CNC(=O)[C@@H](NC(=O)[C@H](Cc1ccccc1)NC(=O)CNC(=O)CNC(=O)[C@@H](N)Cc1ccccc1)[C@@H](C)O)C(=O)N[C@@H](CCCN=C(N)N)C(=O)N[C@@H](CCCCN)C(=O)N[C@@H](CO)C(=O)N[C@@H](C)C(=O)N[C@@H](CCCN=C(N)N)C(=O)N[C@@H](CCCCN)C(N)=O
-17.5% | CCOC(=O)N1CCN(Cc2nnc(-c3cccc(Br)c3)o2)CC1
0.8% | CN(CC(=O)Nc1c(Cl)cccc1Cl)C(=O)CNC(=O)c1ccc2ccccc2c1
3.5% | CCOC(=O)C1=C(CNC2CCCCC2)NC(=O)NC1c1cc(C)ccc1C (centres undefined)
-7.7% | CC(C)CNS(=O)(=O)c1ccc(CCC(=O)NCC2CCCO2)cc1 (centres undefined)
15.3% | CSc1nc(/C=C2\C=Nc3ccccc32)c(O)n1C
4.8% | Cc1sc2nc(C)n(/N=C/c3ccc(O)cc3)c(=O)c2c1C
-2.0% | CCSc1nnc(NC(=O)C2CC(=O)N(Cc3ccccc3)C2)s1 (centres undefined)

# 4 structures already listed, arranged by SMILES length, low to high.
VDR inhibitor | Compound
15.3% | CSc1nc(/C=C2\C=Nc3ccccc32)c(O)n1C
4.8% | Cc1sc2nc(C)n(/N=C/c3ccc(O)cc3)c(=O)c2c1C
-17.5% | CCOC(=O)N1CCN(Cc2nnc(-c3cccc(Br)c3)o2)CC1
0.8% | CN(CC(=O)Nc1c(Cl)cccc1Cl)C(=O)CNC(=O)c1ccc2ccccc2c1

# More structures follow.
VDR inhibitor | Compound
3.6% | CCOc1ccc(C(=O)NNC(=O)CCNC(=O)c2ccco2)cc1OC
-3.0% | O=C(c1cccc(S(=O)(=O)N2CCCCC2)c1)N1CCN(S(=O)(=O)c2ccc(F)cc2)CC1
-17.8% | COc1ccccc1NC(=O)C(=O)N(c1cccnc1)C(C(=O)NC(C)(C)C)c1ccccc1 (centres undefined)
-13.0% | CCOc1ccc(NC(=S)N2CCN(S(=O)(=O)c3ccccc3)CC2)cc1
-23.7% | CC(=O)Nc1ccc(S(=O)(=O)NNC(=O)c2ccc(S(=O)(=O)N3CCCCC3)cc2)cc1
-23.4% | OCOCCCn1c(C2CCCN2c2nc(-c3ccc(F)cc3)cs2)nc2cc(Cl)c(N3CCCCC3)cc21 (centres undefined)
11.1% | COc1ccc(CCNC(=O)c2ccco2)cc1
-22.9% | CCOc1ccc(OCC)c(NC(=O)CN(C)S(=O)(=O)c2ccc3nc(C)sc3c2)c1

# Random excerpt: 2 records from the list, in no set order.
VDR inhibitor | Compound
11.1% | COc1ccc(CCNC(=O)c2ccco2)cc1
-23.7% | CC(=O)Nc1ccc(S(=O)(=O)NNC(=O)c2ccc(S(=O)(=O)N3CCCCC3)cc2)cc1

# The list continues.
VDR inhibitor | Compound
4.4% | CC(C)CC(=O)NCc1ccc2[nH]c3c(c2c1)CCCC3
-14.8% | COc1cc(/C=N/Nc2cccc3cccnc23)cc(OC)c1O
7.8% | S=c1[nH]c2cc(Cl)c3cccnc3c2o1
14.0% | Cc1ccc(C)c(N(C(=O)Cn2nnc3ccccc32)C(C(=O)NCc2ccco2)c2ccncc2)c1 (centres undefined)
-1.1% | O=C(c1ccccc1F)N1CCN(CC2CC3C=CC2C3)CC1 (centres undefined)
-24.6% | CCOC(=O)Cc1csc(SCC(=O)Nc2ccc(C)cc2F)n1
37.0%[activator] | O=C(CCCn1c(=S)[nH]c2ccccc2c1=O)NCCSCc1ccccc1
2.9% | CCOc1ccc(N(CC(=O)Nc2ccc(C)c(C)c2)S(C)(=O)=O)cc1
7.0% | O=C(CNc1ccccc1F)Nc1cccc(S(=O)(=O)N2CCCCC2)c1
13.7% | CC(=O)CSc1ncnc2nc[nH]c12
2.2% | CC(OC(=O)/C=C/c1cccs1)C(=O)Nc1ccc(C(N)=O)cc1 (centres undefined)
2.4% | CCCCS(=O)CC(COCc1ccccc1)OC(=O)CSc1nc(C)cc(C)n1 (centres undefined)
-0.9% | COC(=O)c1scc(C)c1N/N=C(\C)c1ccc(F)cc1F
-16.4% | O=C1COc2ccc(-c3cc(-c4ccc(F)cc4)c4c(n3)-c3cc(Cl)ccc3OC4)cc2N1
-3.3% | CCC1CCCCN1CCCNC(=O)C1CCC(=O)N1Cc1ccc(C)cc1 (centres undefined)
-6.6% | CCN(CC)C(=O)C1CCCN(Cc2ccc(OC)c(C)c2)C1 (centres undefined)
-1.7% | COc1ccc(CCNC(=O)c2ccc(=O)[nH]c2)cc1OC
0.2% | COc1ccc(NC(=O)C(=O)N/N=C(\C)CC(=O)Nc2ccccn2)c(OC)c1
1.9% | Cc1nnc(-c2ccc(Cl)cc2)nc1NCCN(C)C
3.3% | CCCNC(=O)CCc1c(C)nc2nc(C)nn2c1C
0.4% | Cn1cc(Br)c(NS(=O)(=O)c2ccc(Cl)s2)n1
-17.8% | O=C(COC(=O)C1=Cc2ccccc2OC1)NCc1ccc(F)cc1
3.0% | CC1(C)CC(N(Cc2cccs2)C(=O)c2ccco2)CCO1 (centres undefined)
2.4% | COc1cc2nc(Cl)nc(N3CCOCC3)c2cc1OC
-0.7% | CCN(CC)S(=O)(=O)c1cc(NC(=O)CCCOc2ccc(C(C)=O)cc2)ccc1C
-6.7% | O=C(CCCCCN1C(=O)c2cccc3cccc(c23)C1=O)NCc1cccnc1
70.8µM* | Cc1ccccc1-c1n[nH]c(=S)n1/N=C/C=C/c1ccco1
4.0% | O=C(c1cccs1)N1CCN(c2ncc(C(F)(F)F)cc2Cl)CC1
-13.9% | CCCOc1ccc(N2CC(C(=O)Nc3ccc(N4CCOCC4)cc3)CC2=O)cc1 (centres undefined)
-19.0% | CC(=O)N1c2ccc(S(=O)(=O)NCC3CCC(C(=O)Nc4ccc(C)cn4)CC3)cc2CC1C (centres undefined)
-27.9% | CN(C)CCOc1ccc(-c2c(-c3ccsc3)sc3ccccc23)cc1
6.0% | CCOC(=O)c1ccc(N2C(=O)c3n[nH]c(C)c3C2c2ccc(O)cc2)cc1 (centres undefined)
-12.1% | Cc1ccc(NC(=O)CCC(=O)c2cccs2)c(Br)c1
19.2% | CCc1cc2c(NCC3CCCO3)nc(C)nc2s1 (centres undefined)
8.8% | CCn1c2ccccc2c2cc(NC(=O)CSc3nnc(-c4cccc(C)c4)o3)ccc21
-13.7% | CC(C)(C)NC(=O)CN(C(=O)CS(=O)CC(=O)Nc1ccc(F)cc1)c1ccc2c(c1)OCCO2 (centres undefined)
4.2% | Cc1cc(C(=O)Nc2c(F)c(F)c(F)c(F)c2F)n(-c2ccccc2)n1
-6.4% | COc1ccc(-c2nc3sc(CCNC(=O)C(=O)Nc4ccc(C)cc4C)c(C)n3n2)cc1
5.8% | CCCCc1nc(C(N)=O)c2[nH]c(=O)n(-c3ccccc3F)c2n1
-18.9% | CCCn1c(SCC(=O)c2cc(C)ccc2C)n[nH]c1=O
7.4% | Cc1ccc(N2CN(Cc3ccco3)CNC2=S)cc1
? | CCC(C(=O)O/N=C(\N)c1ccccc1)c1ccccc1 (centres undefined)
-30.0% | S=C(Nc1ccccc1)Nc1ccc2ccccc2c1
3.3% | CN1CCN(CCc2nc3cc(NC(=O)c4ccco4)ccc3n2C)CC1
-4.6% | Cc1onc(-c2ccccc2)c1C(=O)OCc1nnc(-c2ccc([N+](=O)[O-])cc2)o1
? | CCOc1cc(C2C(C(=O)OC)=C(C)NC3=C2C(=O)c2ccccc23)cc(Br)c1OCC (centres undefined)
4.5% | CCOC(=O)C1CCCCN1Cc1ccc(OC)c(OC)c1OC (centres undefined)
4.6% | O=C(NC1CCN(C(=O)Nc2cccc(Cl)c2)CC1)c1ccccc1
-16.1% | Cn1c(=O)c2c(SCc3cccnc3)nc(C3CC3)nc2n(C)c1=O
7.3% | CCOC(=O)C1=C(N)n2c(s/c(=C\c3ccncc3)c2=O)=C(C(=O)OCC)C1c1ccncc1 (centres undefined)
-8.9% | O=C(Nc1ccccc1C(=O)O)c1ccccc1
? | COc1ccc(OC)c(-c2csc(N(CC3CCCO3)C(=O)C3CCCCC3)n2)c1 (centres undefined)
-7.5% | N#Cc1cccc(NC(=O)CC2CCCC2)c1
-19.5% | Fc1cccc(CCN2C(=S)NC[C@@H]2Cc2ccccc2)c1
-6.1% | COc1ccc(Cl)cc1NC(=O)CN(C)C(=O)Cn1[nH]c(=O)c2ccccc2c1=O
-13.4% | CC(OC(=O)c1ccc([N+](=O)[O-])o1)C(=O)Nc1nc(-c2ccc(F)c(F)c2)cs1 (centres undefined)

# Further records follow:
VDR inhibitor | Compound
-14.4% | CCCCNS(=O)(=O)c1ccc(S(=O)(=O)N2CCC3(CC2)OCCO3)cc1
-5.4% | Cc1ccc(OCC(=O)NCc2ccco2)c([N+](=O)[O-])n1
-17.9% | O=C(CN1CCc2ccccc2C1)Nc1cc(S(=O)(=O)N2CCOCC2)ccc1N1CCCC1
-6.3% | Cn1cccc1Cc1nnc(SCC(=O)Nc2ccc(Cl)cc2)n1-c1ccc(F)cc1
-15.8% | COc1ccccc1N1CCN(C(=O)c2ccccc2SCC(=O)N2CCCC2)CC1
-5.1% | Cc1ccc(CSc2nnc(-n3c(=O)c(C#N)cc4c(=O)n5cc(C)ccc5nc43)s2)cc1
2.9% | CCOC(=O)C1=NOC2COC3(CCN(c4ncccn4)CC3)OCC12 (centres undefined)
-6.5% | CN(CC(=O)Nc1ccccc1Br)CC(=O)NC(c1ccccc1)c1ccccc1
-13.8% | CCOC(=O)C1=C(C)NC(=O)NC1C1CC=CCC1 (centres undefined)
-0.7% | Cc1cccc(NCc2nc(-c3ccccc3)no2)c1
0.3% | CC(CCc1ccccc1)NCc1ccc(Cl)cc1Cl (centres undefined)
-11.8% | CC(=O)N(c1ccc2ccccc2c1)C1SC(=O)N(c2cccc(C)c2)C1=O (centres undefined)
-8.5% | C1CNCCN1
-4.5% | O=C(COC(=O)/C=C/c1ccc2c(c1)OCO2)NC1CCS(=O)(=O)C1 (centres undefined)
-10.6% | CCOc1cccc(-c2c(C(=O)N/N=C/c3ccsc3)nnn2-c2nonc2N)c1
-6.6% | COc1cc(N=CC2=C(O)c3ccccc3C2=O)cc(OC)c1
8.7% | O=C(COC(=O)c1ccccc1C(=O)c1ccc(Cl)cc1)NCC1CCCO1 (centres undefined)
-3.9% | CCOC(=O)N1CCN(C(=O)CCCCCn2c(=S)[nH]c3cc4c(cc3c2=O)OCO4)CC1
-0.8% | COc1ccc(Cc2nnc(SCC(=O)NCCc3ccccc3)o2)cc1
10.7% | O=C(CC1SCCNC1=O)Nc1ccc(Cl)cc1 (centres undefined)
8.6% | CCOc1ccc(C(=O)N(C)C2CCS(=O)(=O)C2)cc1 (centres undefined)
15.3% | CC1=C(C(=O)OC2CCCCC2)C(c2cccs2)n2c(nc3ccccc32)N1 (centres undefined)
5.9% | Cc1ccc(C)c(N2CCN(c3ccncc3N)CC2)c1
2.4% | CCN(CC)c1nc(=S)nc(NC(C)(C)C)[nH]1
-0.1% | CC(=O)C[C@H](O)CC(=O)[C@@H]1OC(=O)[C@H](C)C/C=C\Cc2ccccc21
-6.9% | c1ccc(COc2cccc(CNCc3cccs3)c2)cc1
-5.0% | O=C(Nc1cccc(S(=O)(=O)N2CCCCC2)c1)c1ccco1
-11.7% | O=[N+]([O-])c1ccc(Cl)cc1Sc1ccccn1
-6.5% | CC1CN(S(=O)(=O)c2cccc(C(=O)Nc3ccc(S(=O)(=O)NC4=NCCCCC4)cc3)c2)CC(C)O1 (centres undefined)
8.4% | CC1CC(=O)N(CCc2ccccc2)C(=O)C1
4.8% | Cc1nn(CC(=O)N2CCOCC2)c(=O)c2ccccc12
3.6% | O=C(c1ccc(-n2cccn2)cc1)N1CCc2c([nH]c3ccccc23)C1c1ccccn1 (centres undefined)
20.3% | COc1ccc(-n2c(C)cc(-c3csc(N)n3)c2C)cc1
-10.0% | Cc1nc(SCC(=O)N(C)C2CCCCC2)[nH]c(=O)c1Cc1ccccc1
1.4% | Cc1ccc(N2Cc3ccccc3C2=O)cc1
-12.8% | Cc1nn(C)c(C)c1S(=O)(=O)N(CC(=O)NCc1cccs1)c1ccc(C(C)C)cc1
-0.6% | COC(=O)c1c(C(=O)OC)c(C)n(Cc2ccco2)c1C
-17.7% | COc1ccccc1Nc1nc(C)cc(C)n1
-21.4% | CCOc1ccc2nc(N3CCC(C(=O)N4CCN(C(=O)c5ccco5)CC4)CC3)sc2c1
6.3% | CNS(=O)(=O)c1cccc(C(=O)OCC(=O)Nc2ccc(-c3nc4ccc(C)cc4s3)cc2)c1

# The final three compounds of the section before come first, to join the parts:
VDR inhibitor | Compound
-17.7% | COc1ccccc1Nc1nc(C)cc(C)n1
-21.4% | CCOc1ccc2nc(N3CCC(C(=O)N4CCN(C(=O)c5ccco5)CC4)CC3)sc2c1
6.3% | CNS(=O)(=O)c1cccc(C(=O)OCC(=O)Nc2ccc(-c3nc4ccc(C)cc4s3)cc2)c1
0.1% | O=C(NC1CCCC1)C(c1ccc(F)cc1)N(C(=O)c1csnn1)c1ccccc1F (centres undefined)
4.0% | CCc1cccc2c(C(=O)COC(=O)c3c(C)noc3C)c[nH]c12
0.7%&-4.0% | CCOC(=O)CSc1nc2ccccc2n2c(C)nnc12
10.0% | Cc1cccc(OCC(=O)Nc2cc(-c3ccccc3F)nn2-c2ccccc2)c1
1.6% | CC1CCN(C(=O)COC(=O)c2ccccc2C(=O)c2ccccc2)CC1
9.1% | Cc1ccc(CNC(=O)CS(=O)(=O)CC(=O)O)cc1
? | COc1ccc(C(=O)NC(C)c2nnc(SCC(=O)NC3CCCCC3)n2C)cc1 (centres undefined)
-21.9% | CCc1cccc2c(C(=O)COC(=O)c3nn(C)c(=O)c4ccccc34)c[nH]c12
12.5% | CSc1ccc(CNCCCN(C)C)cc1
2.4% | CCOc1ccc(-c2n[nH]c(=S)n2Cc2ccccc2)cc1
7.8% | Fc1ccc(-n2c(Cn3nnc4ccccc43)n[nH]c2=S)cc1
2.3% | CC1CCC(NC(=S)NCCN(C)C)CC1 (centres undefined)
8.2% | CCOC(=O)c1cc2c(=O)n3ccccc3nc2n(CCCOC)c1=NC(C)=O

# This is a subset (hit frequency here may not be typical).
